Assay outcomes from PubChem BioAssay.
HSD17B inh: qHTS Assay for Inhibitors of HSD17B4, hydroxysteroid (17-beta) dehydrogenase 4. AID 893, 2007. 3-hydroxyacyl-CoA dehydrogenase type-2 (Homo sapiens), Q99714. Potency, µM (series often up to 57.1 µM), for the others: at the top dose activity change, negative = inhibition, actives largely listed as inhibitors. recombinant HSD17B10, NADH fluorescence kinetic; many of its hits are not listed in these tables. 75,000 compounds, 7.6% hits; active = well fitted inhibition curve with a large enough effect; inconclusive = small, poorly fitted or top-dose-only effect; inactive = no such curve, though single readings can be large or run the other way;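 note: the protocol describes HADH2 (HSD17B10) and not the HSD17B4 of the title; nearly all actives have a fitted effect of over 70% in size; most hits overshoot -100% by far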
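Activity followed as NADH fluorescence increase (ex 360, em 450 nm) every 30 seconds for 4 min, using final 90 uM beta-hydroxybutyryl CoA and 1 mM NAD+. Recombinant His-tagged enzyme, 20 nM, pH 9.0 Tris buffer, 15 min compound preincubation.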
Active calls of the source: *; ? = inconclusive; & = joins results of further samples; [ ] = remark or other dose. % is set by controls: 0 for no effect and ±100 for the full control effect; potency is the fitted concentration of half-maximal effect. A portion of the library. The share of hits here may be higher or lower than overall.

smiles,HSD17B inh
CCN(CC)CCN1C(=O)C(O)=C(C(C)=O)C1c1ccccc1 (stereo not drawn),5%
COc1ccc(C2(O)CC3CCC(C2)N3c2nc(C)cc(C)c2C#N)cc1 (stereo not drawn),25µM*
CCOC(=O)c1c(NC(=O)CSc2nc(C)cc(C)c2C#N)sc(C(C)=O)c1C,30%
O=C1NC(c2ccco2)Nc2ccccc21 (stereo not drawn),32µM*
Cc1ccc(-c2cc(C(F)(F)F)n3ncc(C(=O)N4CCN(C)CC4)c3n2)cc1,?
O=C(Cn1nnc(-c2ccc3c(c2)OCO3)n1)NCc1ccco1,1%
COc1ccc(Cc2nnnn2CC(=O)O)cc1,9%
CNC(=O)NC(=O)CSc1cccc(C(F)(F)F)c1,0%
O=C(c1cc(F)c(F)cc1Cl)N1CCOCC1,1%
O=C(CCC1CCCC1)NCc1ccccn1,9%

More structures
smiles,HSD17B inh
O=C(CCC(=O)N1CCCc2ccccc21)N1CCN(S(=O)(=O)c2ccccc2)CC1,3%
Cc1ccc(-c2nc3ccccc3o2)cc1NC(=O)c1ccc2c(c1)OCO2,?
Cc1c(C(=O)OCCOC(C)C)[nH]c2c1C(=O)CC(C)(C)C2,4%
COc1ccccc1NC(=O)CN1CCN(c2ccc(Cl)cc2)CC1,12%
COCC(=O)N1CCC2(CC1)CN(Cc1nccs1)C2,1%
O=C(O)c1ccccc1OCCOc1ccccc1,12%
Cc1cc(C(=O)Nc2ccc3c(c2)OCCO3)c(C)o1,-15%
Brc1ccccc1Cn1c(-c2cncs2)nc2ccccc21,-10%
Nc1ccc(N2CCCCC2)cc1N1CCCCC1,15%
O=C(O)C1C2C=CC(C2)C1C(=O)NCCCn1ccnc1 (stereo not drawn),4%

Following part:
smiles,HSD17B inh
CC1=C(C(=O)Nc2ccc(C)cc2)C(c2ccc(C)o2)C2=C(CC(C)(C)CC2=O)N1 (stereo not drawn),-23%
Cc1ccc(NC(=O)Cn2cnc3c(=O)n(C)c(=O)n(C)c32)c(C)c1,-5%
O=C(O)CCc1nn2c3ccccc3nc2n(-c2ccccc2)c1=O,9%
O=C(O)c1cn(-c2ccccc2)nc1-c1cccnc1,8%
Cc1ccc(Oc2cc(C)nc(-c3ccccc3O)n2)cc1,-10%
CCC(Oc1ccc(C)c(C)c1)C(=O)O (stereo not drawn),-8%
Cc1cnc(CNc2ncncc2-c2ccoc2)cn1,?
O=C(CCn1nc(-c2ccc(Cl)cc2)ccc1=O)N1CCN(c2ccccn2)CC1,-5%
O=C(Nc1ccncc1)c1cccs1,6%
CCCC1=[N+](CC)CCn2c(C)ccc21,-10%

Continued:
smiles,HSD17B inh
Cc1cc(C)cc(N(CC(=O)NC2CCC(C)CC2)S(=O)(=O)c2c(C)noc2C)c1 (stereo not drawn),11%
O=C(c1cccc(F)c1)N1CCC2(CCN(Cc3cc(C(F)(F)F)cc(C(F)(F)F)c3)CC2)CC1,1%
C=CCN=C(NC#N)SCC(=O)NC(C)(C)C,6%
Cc1cnc(CNc2ccnc(-c3c(C)noc3C)n2)cn1,-7%
O=c1cc(N2CCCC2)[nH]c(=O)n1-c1ccc(Cl)cc1,-2%
O=C(O)C(Oc1ccc2c3c(c(=O)oc2c1)CCC3)c1ccccc1 (stereo not drawn),25µM*
CCN(CCCNC(=O)C1CCN(S(=O)(=O)c2cccc3nonc23)CC1)Cc1ccccc1,7%
O=C(O)CCCc1ccc2ccccc2c1,0%[11.4 µM]
O=C(O)CCC(=O)N(Cc1cccs1)Cc1cccs1,-14%
NC(=O)c1ccccc1-c1nc(-n2ccnc2)c2ccccc2n1,-10%

Following part
smiles,HSD17B inh
Cc1ccc(C(=O)N2CCN(C)CC2)cc1S(=O)(=O)N1CCCCC1,12%
COc1ccc(NC(=O)N2CCC(O)(c3cccnc3)CC2)c(OC)c1,6%
CCN1CCN(Cc2ccc(OC)c(OCc3ccccc3)c2)CC1,3%
CCCC[C@@H]1C[C@H]1C(NC(=O)c1ccco1)c1ccc(C(=O)OC)cc1 (stereo partly drawn),-2%
COc1ccccc1N1CCN(C(=O)c2cc(-c3cccs3)on2)CC1,-20%
CSc1oc(-c2ccc(F)cc2)nc1S(=O)(=O)c1ccccc1,?
O=C1c2ccccc2C(=O)N1CCCc1nc(-c2ccc(Cl)cc2)no1,6%
Cc1ccc2nc(C)c(C)nc2c1N,3%
N#Cc1cccc(NC(=O)N2CC[C@@]3(CCCN(C(=O)c4csnn4)C3)C2)c1,1%
O=C(CSC1=NCCS1)N1CCN(c2ccccc2)CC1,7%

Later entries
smiles,HSD17B inh
COC(=O)C/C=C\[C@@H](C)[C@@H](/C=N\O[C@@H]1O[C@H](COC(C)=O)[C@@H](OC(C)=O)[C@H](OC(C)=O)[C@H]1OC(C)=O)NS(=O)(=O)c1ccc(C)cc1,8%[11.4 µM]
COc1ccc(CNc2ncncc2-c2ccc3c(c2)OCO3)c(OC)c1,-21%
CCn1c(N)c(C(N)=O)sc1=S,?
COc1ccc(CN2CC(C(=O)NCCCN3CCCCCC3)CC2=O)cc1 (stereo not drawn),11%
Cc1cnc(CNc2ncnc3ccc(-c4ccc(N(C)C)cc4)cc23)cn1,?
CC(O)(C#CCN1CCCC1)c1ccccc1 (stereo not drawn),4%
COC(=O)NC1CSCC1OC(=O)c1ccc(Br)cc1 (stereo not drawn),-3%
O=C(Nc1ccc2c(c1)OCCO2)c1ccc(Cl)c(S(=O)(=O)N2CCOCC2)c1,4%
Cc1ccc2[nH]c(C)c(CN(C)C3CCN(C)CC3)c(=O)c2c1,0%
COc1cccc([C@H]2Oc3ccc(OC)cc3/C(=N\O[C@@H](C)c3cn([C@H](CO)Cc4ccccc4)nn3)[C@@H]2O)c1,-1%&-10%[11.4 µM]

Other results
smiles,HSD17B inh
COC(=O)C1=C(C(=O)c2ccccc2)C(c2cccs2)n2nnnc2N1 (stereo not drawn),-5%
O=C(COC(=O)c1cnccn1)c1ccc(Br)cc1,3%
COc1ccc(OC)c(C2C(C(C)=O)=C(O)C(=O)N2c2ccc(F)cc2)c1 (stereo not drawn),-1%
CCn1nnc(-c2ccccc2NC(=O)c2cc(OC)c(OC)c(OC)c2)n1,7%
CCOc1ccc2cc(S(=O)(=O)N3CCOCC3)ccc2c1,?
O=S(=O)(c1cccc(-c2csc(-c3cccnc3)n2)c1)N1CCCCC1,-6%
CN(Cc1ccco1)c1ncncc1-c1ccoc1,?
CC(=O)c1c(C)[nH]c(C(=O)Nc2c(C)n(C)n(-c3ccccc3)c2=O)c1C,9%
CCOC(=O)C1C2C=CC3(CN(Cc4ccco4)C(=O)C13)O2 (stereo not drawn),-4%
CN1CCCN(C)C1c1cc([N+](=O)[O-])ccc1O,8%[11.4 µM]

Some of these compounds in order of count of non-hydrogen atoms, ascending.
smiles,HSD17B inh
CN1CCCN(C)C1c1cc([N+](=O)[O-])ccc1O,8%[11.4 µM]
CN(Cc1ccco1)c1ncncc1-c1ccoc1,?
COC(=O)C1=C(C(=O)c2ccccc2)C(c2cccs2)n2nnnc2N1 (stereo not drawn),-5%
CC(=O)c1c(C)[nH]c(C(=O)Nc2c(C)n(C)n(-c3ccccc3)c2=O)c1C,9%
CCn1nnc(-c2ccccc2NC(=O)c2cc(OC)c(OC)c(OC)c2)n1,7%

Single entries from the entries so far.
`CC(O)(C#CCN1CCCC1)c1ccccc1` (stereo not drawn) @ HSD17B inh = 4%
`COc1ccc(OC)c(C2C(C(C)=O)=C(O)C(=O)N2c2ccc(F)cc2)c1` (stereo not drawn) @ HSD17B inh = -1%
`CN1CCCN(C)C1c1cc([N+](=O)[O-])ccc1O` @ HSD17B inh = 8%[11.4 µM]
`CCCC[C@@H]1C[C@H]1C(NC(=O)c1ccco1)c1ccc(C(=O)OC)cc1` (stereo partly drawn) @ HSD17B inh = -2%

Going on with the list:
smiles,HSD17B inh
O=C(O)CC[C@]1(C(=O)O)CCC(=O)c2ccccc21,5%[11.4 µM]
COc1cc2c(cc1OC)-c1nncn1C(C)(C)C2,-3%
CCCCCCSc1cc(C)nc2ncnn12,4%
O=C(Nc1cccc(F)c1)c1ccc(S(=O)(=O)N2CCOCC2)cc1,-3%
CC(C)(C)c1cc(C(=O)NCc2cccnc2)ccn1,5%
CC(=O)Nc1cc(NC(C)=O)cc(C(=O)NC(C)(C)C)c1,-4%
O=C(C(Cc1ccccc1)n1cccc1)N1CCc2ccccc21 (stereo not drawn),-6%
Cn1c(=O)cc(SCC(=O)N2CCN(C3CCCCC3)CC2)c2ccccc21,-21%
COC(=O)c1cc(=O)[nH]c(SCc2cccc(C)c2)n1,3%
CCCC[C@@H]1C[C@H]1C(NC(=O)c1ccco1)c1ccc(-c2ccccc2)cc1 (stereo partly drawn),-9%

Further records
smiles,HSD17B inh
O=C(CSc1ccc2nnc(-c3ccc(Cl)cc3)n2n1)N1CCN(c2ccccc2)CC1,-1%
COc1ccc(C2/C(=C(/O)c3ccc(Cl)cc3)C(=O)C(=O)N2CCN2CCOCC2)c(OC)c1 (stereo not drawn),-21%
Cc1ccc(CNc2ccc3c(c2)OCO3)cc1,-23%
CCCC(CCC)C(=O)NCCN1CCOCC1,5%
FC(F)(F)c1nnc2ccc(-n3ccnc3)nn12,4%
O=C(NCc1ccccc1Cl)C1CCN(S(=O)(=O)N2CCCCCC2)CC1,1%
COc1cc(C#N)ccc1OCC(=O)c1ccc2c(c1)OCCO2,6%
CC(NC(=O)c1ccc(N(C)C)cc1)C(c1cccs1)N1CCN(C)CC1 (stereo not drawn),-5%
COCCNc1nc(-c2ccc(N(C)C)cc2)nc2ccccc12,25µM*
CN1CCN(Cc2nc3c([nH]2)c(=O)[nH]c(=O)n3C)CC1,-7%

New compounds follow.
smiles,HSD17B inh
COC(=O)C(C#N)c1nc2ccccc2nc1N1CCCC1 (stereo not drawn),?
CC(=O)c1c(C)[nH]c(C(=O)CSc2nnc(-c3ccco3)n2Cc2ccccc2)c1C,?
O=C(OCCCN1C(=O)c2ccccc2C1=O)c1ccco1,-2%
C=CCn1cc(C(=O)NCCCOC)c(=O)c2cc(S(=O)(=O)N(CC)CC)ccc21,?
COc1ccc(Cl)cc1C(=O)NCC(c1ccco1)N1CCCC1 (stereo not drawn),-1%
NC(=O)NC(=O)COC(=O)c1ccccc1Oc1ccccc1,5%
COc1ccccc1-c1cncnc1NCc1cccnc1,-23%
CC(=O)Nc1c(C(=O)c2ccccc2)oc2ccccc12,-1%
CN(C)CCN1C(=O)c2oc3ccccc3c(=O)c2C1c1ccccc1 (stereo not drawn),18%
O=C(NCc1ccco1)c1cccc(NC(=O)c2ccccc2)c1,1%

(listing goes on)
smiles,HSD17B inh
O=C(CSc1nnc(-c2ccco2)n1-c1ccccc1)N1CCc2ccccc21,6%
Clc1cc(Br)ccc1OCCOCCN1CCOCC1,21%
CC(C)OCCCNC(=O)c1c(N)n(/N=C/c2ccccn2)c2nc3ccccc3nc12,10%
CCCCCn1c(CNC(=O)c2cccs2)nc2ccccc21,5%
CCC(C)(NC(=O)CNC(C)=O)C(=O)NC1CCCCC1 (stereo not drawn),1%
CCOC(=O)CCCCCCCCCCCCC1C=CCC1 (stereo not drawn),2%
CC(=C1C(=O)c2ccccc2C1=O)N1CCN(Cc2ccccc2)CC1,-22%
CCN(CC)c1cc2nonc2c2nonc12,5%
Cc1ccc(C(C)NC(=O)C2CCCO2)cc1C (stereo not drawn),-21%
CC1(C)C=CC(=O)[C@]2(C)C1CC(=O)[C@]1(C)C2CC[C@@]2(C)C(c3ccoc3)OC(=O)C3OC321 (stereo partly drawn),0%

More results.
smiles,HSD17B inh
CCS(=O)(=O)NCCc1csc(C)n1,2%
Cc1cc(NC(=O)COC(=O)c2c(C)nn(-c3ccccc3)c2C)no1,4%
COc1ccc(OCCSc2nc3ccccc3c(=O)[nH]2)cc1,-1%
Cc1ccc(Cn2nnc3c(=O)n(CC(=O)NCC4CCCO4)cnc32)cc1 (stereo not drawn),14%
CCCN1CCN(CCCNC(=O)Cn2nc(-c3ccccc3)ccc2=O)CC1,-9%
CCOC(=O)c1ccc2ncc(C(=O)OCC)c(NCCCN3CCOCC3)c2c1,?
COc1ccc(Cl)cc1S(=O)(=O)N1CCN(CC(=O)C(C)(C)C)CC1,5%
COc1ccc(C(=O)NCC(=O)NC2=NCCS2)cc1,2%
COc1cccc(-c2nnc3n2N=C(c2cccc(Br)c2)CS3)c1,11%
CC(C)c1c(O)nc(SCc2ccccc2)[nH]c1=O,-2%

Later entries.
smiles,HSD17B inh
CCOC(=O)c1ccccc1NC(=O)C(C)Oc1ccccc1 (stereo not drawn),-19%
N#CCCn1c(=O)c(-c2ccc(Cl)cc2)nc2cnc(OCc3ccccc3)nc21,14%
COc1cc(N)c(Cl)cc1C(=O)OCCCN1CCCCC1,-6%
CCOCCCNC(=O)CCCn1nc(C)n2c(cc3sccc32)c1=O,-1%
CCN1C(=O)C2(C(C#N)=C(N)Oc3cc(C)oc(=O)c32)c2ccccc21 (stereo not drawn),-5%
CNC(=O)CSc1nnc(-c2cccnc2)n1CCc1ccccc1,1%
CC1CCN(S(=O)(=O)c2cccc(C(N)=O)c2)CC1,5%
C=Cn1ccnc1P(=S)(c1ccc2c(c1)c1ccccc1n2CC)c1nccn1C=C,-14%
CC1Cc2nc(SCC(=O)N3CCCC3)n(C)c(=O)c2S1 (stereo not drawn),9%
C=CCN(CC=C)C(=O)C1CC(=O)N(c2ccc(Br)cc2)C1 (stereo not drawn),-8%
CCOC(=O)C1CCN(C(=O)C2CCN(S(=O)(=O)c3cc(Cl)ccc3Cl)CC2)CC1,-31%
